From PubChem
YopH PTP inh = inhibitors of Yersinia enterocolitica YopH tyrosine phosphatase; fluorescence Ex485/Em525; inhibition, %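 (about 10 µM by stock and volumes)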; actives 0.16% (n = 140,000); AID 898;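 active = inhibition of 50% or more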;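 note: controls were vehicle for no effect and minimum signal wells for full effect; inactives centre near -20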
Mtb bLac sens = beta-lactam sensitization of Mtb H37Rv. M. tuberculosis H37Rv growth with meropenem, percent inhibition; hits of this screen are not shown here. inhibition, % at 25 µM. actives 0.27% (n = 330,000);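 active = about 74% or more and at least 40 points above the plate without the antibiotic, then above 30% in a dose series; inconclusive = first-round hits that could not be retested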;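 note: growth measured after seven days incubation then overnight dye step; 0% = bacteria only wells and 100% = bacteria with antibiotic; twin plates without the antibiotic show which effects depend on it; some results filed as inactive read as strong as hits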
Mtb growth = M. tuberculosis H37Rv growth inhibitors, H37Rv strain (AID 1626). actives 0.95% (n = 220,000). inhibition, % at 10 µM, or IC50 in µM where a hit was titrated. M. tuberculosis H37Rv growth inhibition; higher % means a stronger effect;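 active = confirmed in a dose series; inconclusive = inhibition above 80% but not taken into the dose series; inactive = below 80% or under 30% at every dose of the series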;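 note: bacteria incubated seven days before Alamar blue readout; 0% = bacteria only wells and 100% = bacteria with antibiotic wells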
RecA intein inh = inhibitors of M. tuberculosis RecA intein splicing. P9WHJ3. cell-free RecA intein splicing, fluorescence. inhibition, %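 (about 9 µM by stock and volumes)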. actives 0.75% (n = 290,000). AID 2221; in the data active = inhibition above about 30%; inconclusive = no clear call, values can overlap the other calls;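 note: 0% = vehicle wells and 100% = reference inhibitor control wells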
Target sequence (P9WHJ3 whole entry, looked up): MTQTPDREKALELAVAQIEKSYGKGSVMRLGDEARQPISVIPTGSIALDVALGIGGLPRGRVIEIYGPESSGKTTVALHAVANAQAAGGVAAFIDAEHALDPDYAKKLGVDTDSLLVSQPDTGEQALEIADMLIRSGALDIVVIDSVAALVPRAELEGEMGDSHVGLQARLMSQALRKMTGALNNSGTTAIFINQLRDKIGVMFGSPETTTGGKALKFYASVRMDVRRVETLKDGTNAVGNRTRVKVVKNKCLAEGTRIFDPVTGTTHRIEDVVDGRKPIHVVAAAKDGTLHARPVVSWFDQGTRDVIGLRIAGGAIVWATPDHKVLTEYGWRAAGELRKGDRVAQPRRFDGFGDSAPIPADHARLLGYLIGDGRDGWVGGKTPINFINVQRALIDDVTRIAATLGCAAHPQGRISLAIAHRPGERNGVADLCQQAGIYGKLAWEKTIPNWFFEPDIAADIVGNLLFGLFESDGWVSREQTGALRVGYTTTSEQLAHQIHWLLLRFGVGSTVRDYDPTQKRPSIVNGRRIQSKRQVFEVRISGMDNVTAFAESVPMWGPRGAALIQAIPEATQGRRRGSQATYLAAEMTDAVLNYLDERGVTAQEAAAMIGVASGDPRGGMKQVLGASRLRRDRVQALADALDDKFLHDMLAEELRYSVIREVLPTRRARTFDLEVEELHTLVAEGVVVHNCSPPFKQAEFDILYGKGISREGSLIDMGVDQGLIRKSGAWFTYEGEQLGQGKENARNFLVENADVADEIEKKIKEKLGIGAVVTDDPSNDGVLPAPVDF
Arbovirus inh = blocks arbovirus infection | actives 0.37% (n = 200,000) | AID 1251 | arbovirus infection cell-based antiviral screen | inhibition, % at 10 µM;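 active = inhibition from about 30%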;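 note: bluetongue infection of BSR cells; cell survival read as ATP light after 72 h; 0% = infected wells without compound and 100% = uninfected wells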
Arbovirus inh repeat = also measured in Arbovirus inh; calls as there; inhibition, %; measured here: 10K subset replicate screen; many hits read low in the repeat;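 first of two repeat runs on a subset; 0% = infected and 100% = uninfected wells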
Numbers without * were called inactive; ? = inconclusive; . = not tested or not shown; & = joins results of further samples. Not all compounds are listed; rates above refer to the full screens.

SMILES | YopH PTP inh | Mtb bLac sens | Mtb growth | RecA intein inh | Arbovirus inh | others
CC(=O)NC1C(OCCOc2ccc(Cl)cc2Cl)OC(COC(C)=O)C(OC(C)=O)C1OC(C)=O (stereo not drawn) | -20 | 5 | . | -1.4 | 4
COc1ccc(/C=C/C(=O)Nc2ccccc2C(=O)N2CCCC2)cc1 | -29 | -8 | -7% | -5.8 | 2
COc1ccc(S(=O)(=O)Nc2ccc(O)c(Sc3nc4ccccc4s3)c2)cc1 | -23 | -9 | -4% | 4.0 | 10
Cc1ccc(N2C(=O)c3n[nH]c(C)c3C2c2ccccn2)cc1 (stereo not drawn) | -43 | -2 | . | -2.7 | -6
COc1ccc(/C=N/NC(=O)c2nonc2C)cc1 | -10 | -5 | 1% | -3.8 | 4
CSc1nc2ccc3nc(NC(=O)c4cccs4)sc3c2s1 | -3 | 7 | 6% | -1.1 | 1
COc1cc(OC)c(OC)cc1/C=N/Nc1ncnc2c1[nH]c1ccc(C)cc12 | . | 3 | -12% | -11 | .
CCCOc1ccccc1C1CC(=O)NC(C)=C1C(=O)OCC(C)C (stereo not drawn) | -21 | 3 | -2% | 1.0 | -4
COC(=O)c1ccccc1N/C=C1\CCc2c(c(C)nn2-c2ccccn2)C1=O | -8 | 15 | 12% | -19 | -5
Cc1ccc(SCc2nc3ccccc3n2CC(=O)Nc2c(C)cccc2C)cc1 | -5 | -12 | -8% | 2.8 | -8
O=C(CCn1ccc2ccccc21)Nc1ccc(N2CCOCC2)cc1 | -37 | 2 | -2% | -0.6 | -10
Clc1cccc(N2CCN(c3ncnc4nc[nH]c34)CC2)c1 | . | -8 | 1% | -1.6 | .
CC12CC(NC(=O)N1CCc1ccccc1)c1ccccc1O2 (stereo not drawn) | -23 | 1 | -5% | 0.4 | 7 | Arbovirus inh repeat=0
CCN(C(=O)CN1C(=O)S/C(=C\c2ccccc2OC)C1=O)C1CCS(=O)(=O)C1 (stereo not drawn) | . | 5 | . | 1.8 | .
O=Cc1nc(-c2ccc(Cl)cc2)n2ccccc12 | 18 | -3 | -1% | 1.2 | -4
COc1ccc(NC(=S)N2CCC(Cc3ccccc3)CC2)cc1 | . | -1 | . | 2.0 | .
CCN1CCN(Cc2ccc(NC(=O)c3ccc(C)c(NC(=O)C(=O)c4c[nH]c5ccccc45)c3)cc2C(F)(F)F)CC1 | . | 100&100 | 4.3µM* | 20 | .
COCCN(CCOC)C(=S)Nc1cc(S(=O)(=O)N(C)C)ccc1C | . | 8 | 2% | -3.6 | 0
CN1CC(C(=O)c2ccccc2)C(C(=O)c2ccccc2)C1 (stereo not drawn) | -23 | 0 | 15% | -4.7 | -2
O=C(Nc1ccc(Cl)cn1)c1cnn2cccnc12 | -4 | 3 | -4% | . | -6
C1=C(CCNc2ncnc3nc[nH]c23)CCCC1 | -33 | 6 | 6% | 2.8 | -2
COC(=O)Cn1c2c(c3cc(C)ccc31)CCCC2NC(C)c1ccccc1 (stereo not drawn) | . | -6 | 3% | . | .
COCCNC(=O)c1ccc2c(c1)S(=O)(=O)c1ccccc1C2=O | . | -5 | 1% | -1.0 | .
CCOC(=O)C1=C(N)OC2=C(C(=O)CC(C)(C)C2)C12C(=O)Nc1ccccc12 (stereo not drawn) | -38 | -4 | -1% | 2.7 | -3
Cc1c(C(=O)NN)sc(-c2ccccc2)c1C#N | . | -2 | 7% | 2.5 | -10
Cc1cc(C(=O)Nc2cc(S(C)(=O)=O)ccc2Cl)no1 | . | -5 | . | -0.7 | .
CC(C)CC(c1nnnn1C(C)C)N1CCN(C(=O)c2ccco2)CC1 (stereo not drawn) | . | 3 | . | -0.1 | .
O=C1NC2(CCC3(CC2)OCCO3)NN1c1ccccc1 | . | -4 | ? | -1.5 | -34
N#C/C(=C(/O)COC(=O)COc1ccc(Cl)cc1)c1nc2ccccc2[nH]1 | -1 | 78 | 67% | -0.9 | -26
CCCn1nnc(NC(=O)c2cccc(OCc3ccccc3)c2)n1 | 5 | 2 | 11% | 0.8 | -7
C[C@H](NC(=O)c1nc[nH]c1C(=O)NCc1ccccc1)C(=O)OCc1ccccc1 | . | -4 | . | 5.0 | .
CC(C)CCNC(=O)c1cc(C(=O)c2cc(F)ccc2O)cn(CCC(C)C)c1=O | . | 1 | -2% | -2.1 | 2
CCNC(=O)CN1C(=O)NC(Cc2ccccc2)(Cc2ccccc2)C1=O | . | -4 | -1% | 0.4 | 0
O=C(/C=C/c1ccc(S(=O)(=O)NCc2ccco2)cc1)NCc1cccc(Cl)c1 | -38 | 4 | 10% | 4.0 | 9
Cc1cccc(Nc2ncccc2C(=O)O)c1C | -29 | 5 | -14% | 0.1 | -1
Cc1noc(C)c1C(=O)Nc1sc(C)c(C)c1C#N | -14 | 2 | 8% | 2.2 | -2
Cc1ccc(OCCNC(=O)c2ccccc2SCC(=O)N2CCCC2)cc1 | . | -9 | . | -1.1 | .
CCC1CCCCN1CCCNC(=O)CN1C(=O)COc2ccc(S(=O)(=O)N3CCOCC3)cc21 (stereo not drawn) | . | -1 | . | -0.4 | .
Cn1cnc2c1c(=O)n(Cc1ccccc1)c(=O)n2C | -28 | -2 | -6% | 1.7 | 6 | Arbovirus inh repeat=3
O=C1c2ccncc2C(=O)N1C1CCCCC1 | 13 | -2 | -8% | 1.9 | -2
COC(=O)C1=C(C)Nc2ncnn2C1c1ccco1 (stereo not drawn) | -28 | 18 | -8% | -0.1 | 0
CC(=O)c1c(C(C)=O)c(C)n(-c2cccc3cccnc23)c1C | . | 2 | -2% | 0.3 | -2
CCOc1ccc(C(=O)NCC(=O)N2CC=C(c3ccccc3)CC2)cc1OCC | . | 2 | . | 2.2 | .
COc1cc(NC(=O)c2cc(-c3cccc(O)c3)on2)cc(OC)c1OC | -2 | -2 | 11% | 5.4 | -4 | Arbovirus inh repeat=-7
COc1ccc(CCC(=O)Nc2cc([N+](=O)[O-])ccc2OC)cc1 | -24 | 5 | -5% | -1.0 | 2
O=C(Nc1nc2ccccc2s1)c1cnccn1 | -20 | 96 | ? | 0.6 | -13
C=CCn1cc(-c2ccccc2)cc(C#N)c1=O | -16 | -5 | -6% | 4.3 | 0
O=C(CCC(=O)N1CCOCC1)NCCc1ccc(Cl)cc1Cl | . | ? | . | 0.1 | .
Cc1cc(C)c(S(=O)(=O)N2C=CC(C(F)(F)F)=NCC2)c(C)c1 | 5 | -2 | -1% | -1.9 | 13
Cc1ccc(NC(=S)N(CCC(C)C)C(C)c2ccncc2)c(Cl)c1 (stereo not drawn) | . | 0 | 5% | 3.5 | .
CC(C)Cn1c(-c2cc(Br)ccc2F)nc2c1c(=O)[nH]c(=O)n2CC(C)C | . | 8 | . | 13 | .
O=C(Cc1cccc2ccccc12)N/N=C/c1ccc2cccc(O)c2n1 | . | 99 | . | 0.1 | .
COc1ccc2[nH]c(C)c(CCNC(=S)Nc3cc(C)ccc3C)c2c1 | -22 | 1 | . | -4.4 | -6
COc1ccc(NS(=O)(=O)c2cc(NC(=O)Cn3cnc4c3c(=O)n(C)c(=O)n4C)ccc2C)cc1 | . | -4 | 4% | 2.0 | -14
O=S(=O)(Nc1nc2ccccc2s1)c1ccc(Cl)s1 | 12 | 5 | -2% | -0.9 | 7
CCOc1ccc(N(C(C)=O)c2nc(C)cc(C)c2C#N)cc1 | -63 | 6 | 6% | 3.1 | 0
Cc1ccc(OCC(=O)c2c[nH]c3ccccc23)c([N+](=O)[O-])n1 | . | -3 | -5% | -2.0 | 9
COC(=O)c1ccc(NC(=O)c2ccccc2NS(C)(=O)=O)cc1 | -26 | 8 | -2% | -1.1 | 52*
COc1ccc(-n2nc(C(=O)N3CCN(c4ccc(F)cc4)CC3)c3ccccc3c2=O)c(OC)c1 | -19 | . | 12% | . | 18
CCOCCCNc1ncnc2c1nc1n2CCCC1 | . | 5 | . | -1.2 | .
Next part.
SMILES | YopH PTP inh | Mtb bLac sens | Mtb growth | RecA intein inh | Arbovirus inh | others
COc1ccc(CCNC(=O)Nc2cccc([N+](=O)[O-])c2)cc1 | . | -13 | -5% | 1.1 | -9
CCOC(=O)C1CCN(c2c(NC3CCCc4ccccc43)c(=O)c2=O)CC1 (stereo not drawn) | -18 | -2 | 2% | 1.7 | -4 | Arbovirus inh repeat=9
O=C(CCc1ccc(S(=O)(=O)N2CCOCC2)cc1)Oc1ccccc1 | 0 | . | 9% | 2.4 | 1
COC(=O)c1ccc(COc2ccc3c(C)c(C)c(=O)oc3c2C)o1 | -39 | . | 4% | -1.5 | 5
CCOc1ncccc1C(=O)OCC(=O)Nc1cc(S(=O)(=O)N2CCOCC2)ccc1C | -22 | 0 | 5% | -0.2 | 11
CC(=O)Nc1ccc(C(=O)OCc2ccc(Cl)cc2)cc1 | -38 | 15 | -6% | 0.3 | 2
CCOC(=O)c1sc2nc(C)nc(NCc3ccc(F)cc3)c2c1C | . | 7 | . | 0.7 | .
Cc1ccc(S(=O)(=O)N2CCC(C)CC2)c([N+](=O)[O-])c1 | . | -3 | 8% | . | -6
COc1cc(OC)c(C2C(C(=O)N3CCOCC3)=C(C)NC3=C2C(=O)CC(C)(C)C3)cc1OC (stereo not drawn) | -2 | 8 | -5% | 2.8 | 3
CC(=O)Nc1ccc(NC(=O)C2CC(=O)Nc3ncnn32)cc1 (stereo not drawn) | . | -8 | -3% | -0.5 | .
CCc1ccc(NC(=O)c2cccc(NC3=NC4CS(=O)(=O)CC4S3)c2)cc1 (stereo not drawn) | . | 0 | . | -4.9 | .
CCN1CCCC(Sc2nc3c([nH]2)c(=S)n(C)c(=O)n3C)C1 (stereo not drawn) | . | 1 | . | -0.3 | .
COc1ccc(-c2c(N)nnc3c2[nH]c2ccccc23)cc1OC | -20 | 7 | . | -4.7 | 1
O=C1/C(=C/c2ccccc2)N=C(N2CCOCC2)N1c1cccc(Cl)c1 | -30 | 5 | 3% | 0.8 | -4
Cc1cc(-c2nnc(SCC(=O)Nc3ccccc3C(F)(F)F)n2N)n[nH]1 | . | -2 | . | -1.8 | .
Cc1ccc(C(=O)N/C(=C\c2sccc2C)C(=O)NCCCN2CCOCC2)cc1 | . | -5 | . | 1.3 | .
Cc1ccc(NS(=O)(=O)c2ccc(-c3ccc(=O)[nH]n3)o2)cc1 | . | -5 | . | -1.3 | .
Cc1ccc(S(=O)(=O)N/N=C/c2cccn2-c2ccc(Cl)cc2)cc1 | -29 | -8 | 6% | 4.6 | -15
O=C(NNC(=O)c1ccccc1[N+](=O)[O-])c1ccc(NC(=O)c2ccccc2)cc1 | . | 0 | . | -0.3 | .
COCCNC(=S)N1CCN(Cc2cccc(OC)c2)CC1 | . | -6 | -5% | -0.5 | 6
O=C(O)CCC(=O)Nc1ccc(Br)cn1 | -45 | -4 | 6% | -1.0 | 7

Of the compounds above, 13 contain a Cl atom.
SMILES | YopH PTP inh | Mtb bLac sens | Mtb growth | RecA intein inh | Arbovirus inh | others
CC(=O)NC1C(OCCOc2ccc(Cl)cc2Cl)OC(COC(C)=O)C(OC(C)=O)C1OC(C)=O (stereo not drawn) | -20 | 5 | . | -1.4 | 4
Clc1cccc(N2CCN(c3ncnc4nc[nH]c34)CC2)c1 | . | -8 | 1% | -1.6 | .
O=Cc1nc(-c2ccc(Cl)cc2)n2ccccc12 | 18 | -3 | -1% | 1.2 | -4
O=C(Nc1ccc(Cl)cn1)c1cnn2cccnc12 | -4 | 3 | -4% | . | -6
Cc1cc(C(=O)Nc2cc(S(C)(=O)=O)ccc2Cl)no1 | . | -5 | . | -0.7 | .
N#C/C(=C(/O)COC(=O)COc1ccc(Cl)cc1)c1nc2ccccc2[nH]1 | -1 | 78 | 67% | -0.9 | -26
O=C(/C=C/c1ccc(S(=O)(=O)NCc2ccco2)cc1)NCc1cccc(Cl)c1 | -38 | 4 | 10% | 4.0 | 9
O=C(CCC(=O)N1CCOCC1)NCCc1ccc(Cl)cc1Cl | . | ? | . | 0.1 | .
Cc1ccc(NC(=S)N(CCC(C)C)C(C)c2ccncc2)c(Cl)c1 (stereo not drawn) | . | 0 | 5% | 3.5 | .
O=S(=O)(Nc1nc2ccccc2s1)c1ccc(Cl)s1 | 12 | 5 | -2% | -0.9 | 7
CC(=O)Nc1ccc(C(=O)OCc2ccc(Cl)cc2)cc1 | -38 | 15 | -6% | 0.3 | 2
O=C1/C(=C/c2ccccc2)N=C(N2CCOCC2)N1c1cccc(Cl)c1 | -30 | 5 | 3% | 0.8 | -4
Cc1ccc(S(=O)(=O)N/N=C/c2cccn2-c2ccc(Cl)cc2)cc1 | -29 | -8 | 6% | 4.6 | -15

2 successive compounds out of the list so far, for reference:
SMILES | YopH PTP inh | Mtb bLac sens | Mtb growth | RecA intein inh | Arbovirus inh | others
COc1ccc(-c2c(N)nnc3c2[nH]c2ccccc23)cc1OC | -20 | 7 | . | -4.7 | 1
O=C1/C(=C/c2ccccc2)N=C(N2CCOCC2)N1c1cccc(Cl)c1 | -30 | 5 | 3% | 0.8 | -4
